# High-throughput results: PubChem, Johns Hopkins Ion Channel Center
# KCNQ2 inh: KCNQ2 potassium channel inhibitors, primary screen, cell-based, CHO-K1, FluxOR thallium flux, B-score (AID 2156) | Potassium voltage-gated channel subfamily KQT member 2 (Rattus norvegicus), O88943 | 20 min; active compounds read low; only compounds with negative scores are shown here; some inactives read as strong as hits | B-score at 10 µM | 1.1% of 310,000 active;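 active = fluorescence ratio B-score at most minus 3 library SDs, with starting brightness B-score within 2 library SDs, cut at about -5.5 in these data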
# Target sequence (O88943 whole entry, looked up): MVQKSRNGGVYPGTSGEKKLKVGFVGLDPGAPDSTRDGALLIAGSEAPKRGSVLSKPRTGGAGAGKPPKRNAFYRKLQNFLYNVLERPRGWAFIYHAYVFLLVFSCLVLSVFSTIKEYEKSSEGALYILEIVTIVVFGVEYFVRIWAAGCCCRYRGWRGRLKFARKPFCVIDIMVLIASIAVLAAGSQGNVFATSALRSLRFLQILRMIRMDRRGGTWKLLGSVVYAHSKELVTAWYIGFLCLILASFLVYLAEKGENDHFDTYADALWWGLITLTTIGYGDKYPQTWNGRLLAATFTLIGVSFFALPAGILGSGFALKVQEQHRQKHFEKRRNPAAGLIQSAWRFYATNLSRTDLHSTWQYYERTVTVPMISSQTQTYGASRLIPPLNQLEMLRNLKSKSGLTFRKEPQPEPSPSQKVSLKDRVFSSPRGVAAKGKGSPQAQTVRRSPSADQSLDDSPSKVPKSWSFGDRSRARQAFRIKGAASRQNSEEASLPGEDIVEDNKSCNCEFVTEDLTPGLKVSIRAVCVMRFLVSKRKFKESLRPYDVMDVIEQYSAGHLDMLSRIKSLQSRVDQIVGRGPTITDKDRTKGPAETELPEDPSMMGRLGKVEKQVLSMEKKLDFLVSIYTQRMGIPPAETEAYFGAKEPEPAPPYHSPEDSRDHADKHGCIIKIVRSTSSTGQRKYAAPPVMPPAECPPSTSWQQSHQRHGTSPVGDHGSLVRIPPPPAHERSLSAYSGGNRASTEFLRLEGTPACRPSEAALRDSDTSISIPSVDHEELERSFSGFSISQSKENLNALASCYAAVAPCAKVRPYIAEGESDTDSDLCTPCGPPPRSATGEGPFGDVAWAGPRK
# KCNQ2 inh baseline: recorded beside KCNQ2 inh, whose call it bears; B-score; measured here: initial fluorescence intensity artifact check;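 brightness before thallium and not channel activity; 0 = typical well and far values either way flag optical interference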
# The depositor's hits bear a star; i = inactive.
# Sequence of screens – KCNQ2 inh	KCNQ2 inh baseline
1: Cc1c(C(=O)N2CCOCC2)c(S(=O)(=O)Nc2ccccc2)c(C)n1C
  i	0.09
2: COc1ccc(/C=C/C(=O)N(CC(C)C)C2CCS(=O)(=O)C2)cc1 (configuration not stated)
  i	0.73
3: Nc1nc(SCC(=O)Nc2ccc(C(F)(F)F)cc2)[nH]c(=O)c1NC(=O)c1ccc(F)c(F)c1
  i	0.03
4: O=C(c1ccc(S(=O)(=O)Nc2ccc(F)cc2)cc1)N1CCN(C(=O)c2ccco2)CC1
  i	-1.31
5: Cc1ccccc1C(=O)Nc1ccccc1Sc1ccccc1
  -8.36*	-0.69*
6: CN(C)c1ccsc1C(=O)NNS(=O)(=O)c1ccc(Cl)cc1
  i	0.05
7: COc1ccc(CCN2CCCC(CN(C)C(=O)c3cc(C)oc3C)C2)cc1 (configuration not stated)
  i	0.45
8: O=C(NCCCN1CCOCC1)c1cc2nc(-c3ccco3)cc(C(F)(F)F)n2n1
  i	-0.07
9: CC1CN(C(=O)c2ccncc2)CC(C)O1 (configuration not stated)
  i	0.02
10: NC(=O)C1CCN(C(=O)CCCCCn2c(=O)[nH]c3ccsc3c2=O)CC1
  i	0.12
11: COc1ccccc1NC(=O)Nc1ccc2c(c1)CCC2
  i	-0.84
12: COc1ccc(NC(=O)CCNS(=O)(=O)c2ccc3c(c2)c(=O)n(C)c(=O)n3C)c(OC)c1
  i	0.7
13: CCOc1cc(/C=C/c2cccc[n+]2C)ccc1OCC(=O)Nc1ccc(C)cc1
  i	0.1
14: CCOc1ccc2nc(Cl)c(C3CC(c4ccco4)=NN3S(=O)(=O)c3ccccc3)cc2c1 (configuration not stated)
  i	-0.85
15: CCCCNc1c(-c2ccc(OC)c(SC3CCCCC3)c2)nc2cc(C)ccn12
  i	-3.58
16: Cc1cc(NC(=O)CSc2nnc(-c3cccnc3)n2C2CCCCC2C)no1 (configuration not stated)
  i	-0.18
17: Cc1cccc(C)c1OCc1cc(C(=O)NCC2CCCCC2)no1
  i	-0.96
18: COC(CNC(=O)C1CCCN(S(=O)(=O)c2c(C)noc2/C=C/c2cccs2)C1)OC (configuration not stated)
  i	-1.11
19: CCOC(=O)c1oc2ccc(OC)cc2c1NC(=O)CN1CCN(C)CC1
  i	-1.9
20: CN1CCN(CC(O)COc2ccc(OCC(O)CN3CCN(C)CC3)cc2)CC1 (configuration not stated)
  i	-1.28
21: CCCc1cc(=O)n2[nH]c(-c3ccco3)nc2n1
  i	0.89
22: CCn1c(SCC(=O)Nc2nc3ccccc3s2)nnc1-c1ccc(Br)cc1
  i	-0.07
23: O=C(NNS(=O)(=O)c1ccc([N+](=O)[O-])cc1)c1cnn(-c2ccccc2)c1-n1cccc1
  i	-1.31
24: COc1ccc(-c2nc3cc(C)ccn3c2NC(=O)c2ccccc2OC)cc1
  i	2.27
25: COc1ccc(-c2cc(C(F)(F)F)nc(S(=O)(=O)CCC(=O)N3CCOCC3)n2)cc1
  i	-0.04
26: CCN1C(=NCCc2c[nH]c3ccccc23)N[C@@H](c2ccccc2)[C@H](C(=O)OC)[C@H]1C
  i	-2.14
27: O=C(CN(Cc1ccc(F)cc1)S(=O)(=O)c1ccc(S(=O)(=O)N2CCOCC2)cc1)Nc1ccccc1
  i	-0.46
28: COc1cc(C(=O)NCCCN2CCCC2=O)cc(OC)c1OC
  i	0.49
29: CCOc1ccccc1NC(=O)N1CCC(n2nnc3cc(C)ccc32)CC1
  i	1.65
30: O=C(c1cccc2nc3ccccc3nc12)N1CCOCC1
  i	-0.22

# A different layout for four compounds above.
[3] Nc1nc(SCC(=O)Nc2ccc(C(F)(F)F)cc2)[nH]c(=O)c1NC(=O)c1ccc(F)c(F)c1
[4] O=C(c1ccc(S(=O)(=O)Nc2ccc(F)cc2)cc1)N1CCN(C(=O)c2ccco2)CC1
[5] Cc1ccccc1C(=O)Nc1ccccc1Sc1ccccc1
[6] CN(C)c1ccsc1C(=O)NNS(=O)(=O)c1ccc(Cl)cc1

Compound | 3 | 4 | 5 | 6
KCNQ2 inh | i | i | -8.36* | i
KCNQ2 inh baseline | 0.03 | -1.31 | -0.69* | 0.05

# Further structures follow:
# Sequence of screens – KCNQ2 inh	KCNQ2 inh baseline
31: Cn1c(=O)cc(OCCCC(=O)NCCCN2CCN(Cc3ccccc3)CC2)c2ccccc21
  i	0.22
32: COC(=O)c1cc(C(=O)OCC(=O)NCc2ccc3c(c2)OCO3)cc([N+](=O)[O-])c1
  i	0.11
33: CCC(C)N(C(=O)COC(=O)CSc1ccc([N+](=O)[O-])cc1)C1CCS(=O)(=O)C1 (configuration not stated)
  i	-1.11
34: CCN(CC)S(=O)(=O)c1cccc(C(=O)Nc2cccc(C)c2)c1
  i	0.37
35: CC(=O)C1=C(C)NC(=O)NC1c1ccccc1OCC(=O)NCCc1ccccc1 (configuration not stated)
  i	1.3
36: O=C(Oc1cccc2cccnc12)c1ccco1
  i	0.5
37: S=c1[nH]nc(-c2cccs2)n1C1CCCCC1
  i	-0.33
38: CN1CCc2c1nc1ccccc1c2NC(=O)CN1CCCC1
  i	-0.38
39: CCOC(=O)c1ccccc1NC(=O)COC(=O)C1CCN(S(=O)(=O)c2ccccc2C(=O)OC)CC1
  i	1.57
40: CSCC[C@H](NC(=O)OC(C)(C)C)c1nnc(SCc2cccc(F)c2)o1
  i	1.09
41: CC1CCN(c2ccc([N+](=O)[O-])cn2)CC1
  i	-0.21
42: O=C(Cn1c(-c2ccccc2Cl)nc2ccccc21)Nc1cccc(Cl)c1
  i	-0.09
43: O=C(Nc1ccccc1-c1nnn(CC(=O)N2CCCc3ccccc32)n1)c1ccco1
  i	0.42
44: Cc1ccc(S(=O)(=O)NC(N)=NCCc2ccc(Cl)cc2)cc1
  i	-0.03
45: Cc1ccn(S(=O)(=O)c2ccc(C(C)(C)C)cc2)n1
  i	0.02
46: COc1ccc(Cl)cc1NC(=O)CSc1nnc(-c2ccncc2)n1CC1CCCO1 (configuration not stated)
  i	-1.26
47: COc1ccccc1/C=C1/SC(=S)N(C(C)C(=O)NC2C=CS(=O)(=O)C2)C1=O (configuration not stated)
  i	1.93
48: CCc1ccc(S(=O)(=O)N/N=C(/C)c2ccncc2)cc1
  i	-1.47
49: CCCCn1c(N)c(N(CCC(C)C)C(=O)C2CSC3(C)CCC(=O)N23)c(=O)[nH]c1=O (configuration not stated)
  i	-0.92
50: COc1ccc(-c2cc(N3C(=O)Nc4ccccc4N3O)n[nH]2)c(OC)c1
  i	1.3
51: CCC(=O)Nc1ccc(Cl)c(NC(=S)NC(=O)c2ccco2)c1
  i	-2.73
52: COc1ccc(S(=O)(=O)N2CCC3(CC2)OCCN3S(=O)(=O)c2ccccc2)cc1OC
  i	0.74
53: O=c1c2ccc(Cl)cc2nc2n1CC/C2=C\c1cccc(O)c1
  i	2.29
54: O=C(NC12CC3CC(CC(C3)C1)C2)c1cncc(O)c1
  i	2.03
55: COCCn1nnnc1C(c1cc2c(C)cc(C)cc2[nH]c1=O)N1CCCCCC1 (configuration not stated)
  i	0.02
56: Cc1ccc(NS(=O)(=O)c2cccc(C(=O)O)c2)cc1S(=O)(=O)N1CCCCC1
  i	0.05
57: CCn1nnnc1NCc1ccc(OCc2ccc(F)cc2Cl)c(OC)c1
  i	1.53
58: O=C(Nc1nccs1)c1ccc(COc2ccccc2Br)o1
  i	-0.03
59: COc1cc(NC(=O)COC(=O)/C=C/c2ccc(O)c(OC)c2)cc(OC)c1
  i	0.87
60: Cc1ccc(C(=O)NCC(=O)OCC(=O)NC(C)c2ccccc2)s1 (configuration not stated)
  i	0.11

# 2 of these compounds, reformatted:
8	O=C(NCCCN1CCOCC1)c1cc2nc(-c3ccco3)cc(C(F)(F)F)n2n1
  KCNQ2 inh: i
  KCNQ2 inh baseline: -0.07

9	CC1CN(C(=O)c2ccncc2)CC(C)O1 (configuration not stated)
  KCNQ2 inh: i
  KCNQ2 inh baseline: 0.02

# Remaining list, next part:
# Sequence of screens – KCNQ2 inh	KCNQ2 inh baseline
61: Cc1cc(-n2ccnc2)n2c(nc3ccccc32)c1C#N
  i	1.04
62: O=C(CSCCN1C(=O)c2ccccc2C1=O)Nc1ccc2ccccc2c1
  i	0.07
63: Cc1cc(C)c(-c2noc(C(=O)OC(C)(C)C)c2C(=O)OC(C)(C)C)c(C)c1
  -10.2*	1.33*
64: Cc1cccc(OCC(=O)OC2CCN(C)CC2)c1
  i	-1.31
65: O=C(COC(=O)c1cccc(Br)c1)Nc1cccc2c1C(=O)c1ccccc1C2=O
  i	1.56
66: Cc1ccc(C(=O)CSc2nnc3c4ccccc4nc(Cc4ccccc4)n23)cc1
  i	-0.01
67: CCSCCOC(=O)C1=C(C)NC2=C(C(=O)CCC2)C1c1coc2ccccc2c1=O (configuration not stated)
  i	-0.51
68: Cc1nc2nc(-c3cccnc3)[nH]n2c(=O)c1C
  i	0.08
69: COC(=O)c1ccc(NC(=O)CSc2ccccc2)cc1
  i	-0.26
70: CC(NC=O)c1nc2ccccc2n1CCc1ccccc1 (configuration not stated)
  i	0.82
71: CN(C)C(/C=C/Nc1ccc([N+](=O)[O-])cc1)=C(C#N)C#N
  i	1.46
72: CCc1ccc(C(=O)CSc2nc3ccccc3c(=O)[nH]2)cc1
  i	1.99
73: COc1ccc(CNC(=O)N2CCN(c3ccccc3OC)CC2)cc1
  i	0.63
74: CC(C)(C)C(=O)[C@@H]1[C@@H]2C(=O)N(c3ccc4c(c3)OCCO4)C(=O)[C@@H]2C2c3ccccc3C=CN21 (some centres not stated)
  i	0.3
75: CCC(C)N1C(=O)S/C(=C/c2ccc3c(c2)n(C)c(=O)n3C)C1=O (configuration not stated)
  i	1.46
76: COC(=O)C(C)n1cnc2c(nnn2Cc2ccc(Cl)cc2)c1=O (configuration not stated)
  i	0.04
77: COc1ccc(N(C)S(=O)(=O)c2cccc(C(=O)Nc3ccc(OC)nc3)c2)cc1
  i	1.57
78: COc1cc(C(=O)NC(=S)Nc2ccccc2N2CCOCC2)cc(OC)c1OC
  i	0.25
79: COc1ccc(NC(=S)N/N=C2/CCCc3c(C)cc(C)cc32)cc1
  i	-1.12
80: CSCCC(C(=O)OCC(=O)c1ccc(C)c(C)c1)N1C(=O)c2ccccc2C1=O (configuration not stated)
  i	-0.87
81: Cc1ccc(-c2nn(CC(=O)N3CCOCC3)c(=O)c3ccccc23)cc1S(=O)(=O)N(C)C
  i	-0.31
82: CC(=O)c1cc2c(cc1NS(=O)(=O)c1ccccc1C)OCO2
  i	0.59
83: COc1cc(C2C(C#N)=C(N)N(Nc3ccccc3)C3=C2C(=O)CC(C)(C)C3)ccc1OCc1cccc(F)c1 (configuration not stated)
  i	-0.49
84: COc1ccc(N2CCN(C(=O)CSc3nnc4n3C(C)(C)Cc3ccccc3-4)CC2)cc1
  i	0.45
85: O=[N+]([O-])c1cc([N+](=O)[O-])c(Oc2cccnc2Br)cc1NN1CCCCC1
  i	-2.44
86: COc1ccc(NC(=O)NNC(=O)COc2cc(C)c(Cl)c(C)c2)c(OC)c1
  i	-1.19
87: CCOC(=O)c1cc2ccc3ccccc3c2s1
  i	-0.75
88: O=c1nc(Nc2ccc(OCc3ccccc3)cc2)sc2ncccc12
  i	-0.18
89: Cc1cccc(NC(=S)NC23CN4CN(CN(C4)C2)C3)c1
  i	0.53
90: O=C(CSc1ccc([N+](=O)[O-])cn1)Nc1ccc(N2CCOCC2)c(Cl)c1
  i	0.82

# Additional compounds:
# Sequence of screens – KCNQ2 inh	KCNQ2 inh baseline
91: CCCCn1c(=O)nc2n(-c3ccc(C)cc3)c3ccccc3cc-2c1=O
  i	1.55
92: CCOC(=O)c1sc2nc(SCC#N)n(CCCN3CCCC3=O)c(=O)c2c1C
  i	1.25
93: O=C(Nc1c(-c2ccccc2)nc2ccccn12)c1cccs1
  i	-1.66
94: Cc1cc(SCC(=O)N/N=C/c2ccc(O)c(O)c2O)c(C)cc1Br
  i	-0.15
95: CCOC(=O)C1=C(CNC(C)(C)CC(C)(C)C)NC(=O)NC1c1cccc([N+](=O)[O-])c1 (configuration not stated)
  i	-0.16
96: CC(=O)Nc1ccc(NC(=O)CSc2nc3ccccc3nc2N2CCC(C)CC2)cc1
  i	-0.2
97: CCOC(=O)C1=C(C)NC(=O)C(C(N)=O)C12CCCCC2 (configuration not stated)
  i	1.12
98: COCCn1c(C)cc(C2=NNC(=Nc3ccc(F)cc3)SC2)c1C
  i	0.39
99: CCOc1ccc(NC(=O)C(C)SC(N)=O)cc1 (configuration not stated)
  i	5.4
100: C#CCNC(=O)C1=C[C@H](c2ccc(C(F)(F)F)cc2)C[C@H](OCc2ccc(CO)cc2)O1
  i	0.87
101: COc1ccc(S(=O)(=O)Nc2ccc(N(C)C(C)=O)cc2)cc1
  i	-1.85
102: CC/C(=C/c1ccccc1)c1cccc2[nH]c3c(OC)cccc3c12
  i	0.33
103: Cc1ccc(CN2CCC(n3nccc3NC(=O)C3CCOC3)CC2)cc1C (configuration not stated)
  i	-0.68
104: COc1ccc(-c2cc(C(=O)N3CCN(c4ccccc4O)CC3)c3ccccc3n2)cc1OC
  i	0.52
105: O=c1cc(CO)oc(CN2CCN(c3ccccc3)CC2)c1O
  i	1.96
106: COc1ccc(C(=O)N2CCN(c3ccccc3)CC2)cc1S(=O)(=O)N1CCCC1
  i	0.61
107: Cc1ccc(S(=O)(=O)NCCC(=O)OCn2nnc3ccccc3c2=O)cc1
  i	2.13
108: CCN(CC)c1nc(-c2ccc(Cl)cc2)cc(C(F)(F)F)c1C#N
  i	-0.12
109: Cc1ccc(N(CC(=O)N2CCN(c3ccccc3F)CC2)S(=O)(=O)c2c(C)noc2C)cc1
  i	-0.07
110: COC(=O)[C@H](Cc1ccccc1)NC(=O)NCCc1ccc(F)cc1
  i	-0.74
111: CC(C)N=C(NC#N)SCc1ccccc1
  i	2.77
112: c1coc(C2=NCCc3ccccc32)c1
  i	-0.18

# Single records (already shown).
# O=C(CSCCN1C(=O)c2ccccc2C1=O)Nc1ccc2ccccc2c1 in the list: KCNQ2 inh = i; KCNQ2 inh baseline = 0.07
# CC(C)(C)C(=O)[C@@H]1[C@@H]2C(=O)N(c3ccc4c(c3)OCCO4)C(=O)[C@@H]2C2c3ccccc3C=CN21 (some centres not stated) in the list: KCNQ2 inh = i; KCNQ2 inh baseline = 0.3

# Not all compounds are listed, so the mix of outcomes need not match the whole.
